# PKD1 inh: blocks activity of human protein kinase D1; Q15139; PKD1 kinase fluorescence polarization assay; inhibition, %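 (about 10 µM by stock and volumes)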; hit rate 0.056% among 200,000;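 active means inhibition of 50% or more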;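 further: controls were vehicle for no effect and a reference inhibitor for full effect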
# Target sequence (Q15139 whole entry, looked up): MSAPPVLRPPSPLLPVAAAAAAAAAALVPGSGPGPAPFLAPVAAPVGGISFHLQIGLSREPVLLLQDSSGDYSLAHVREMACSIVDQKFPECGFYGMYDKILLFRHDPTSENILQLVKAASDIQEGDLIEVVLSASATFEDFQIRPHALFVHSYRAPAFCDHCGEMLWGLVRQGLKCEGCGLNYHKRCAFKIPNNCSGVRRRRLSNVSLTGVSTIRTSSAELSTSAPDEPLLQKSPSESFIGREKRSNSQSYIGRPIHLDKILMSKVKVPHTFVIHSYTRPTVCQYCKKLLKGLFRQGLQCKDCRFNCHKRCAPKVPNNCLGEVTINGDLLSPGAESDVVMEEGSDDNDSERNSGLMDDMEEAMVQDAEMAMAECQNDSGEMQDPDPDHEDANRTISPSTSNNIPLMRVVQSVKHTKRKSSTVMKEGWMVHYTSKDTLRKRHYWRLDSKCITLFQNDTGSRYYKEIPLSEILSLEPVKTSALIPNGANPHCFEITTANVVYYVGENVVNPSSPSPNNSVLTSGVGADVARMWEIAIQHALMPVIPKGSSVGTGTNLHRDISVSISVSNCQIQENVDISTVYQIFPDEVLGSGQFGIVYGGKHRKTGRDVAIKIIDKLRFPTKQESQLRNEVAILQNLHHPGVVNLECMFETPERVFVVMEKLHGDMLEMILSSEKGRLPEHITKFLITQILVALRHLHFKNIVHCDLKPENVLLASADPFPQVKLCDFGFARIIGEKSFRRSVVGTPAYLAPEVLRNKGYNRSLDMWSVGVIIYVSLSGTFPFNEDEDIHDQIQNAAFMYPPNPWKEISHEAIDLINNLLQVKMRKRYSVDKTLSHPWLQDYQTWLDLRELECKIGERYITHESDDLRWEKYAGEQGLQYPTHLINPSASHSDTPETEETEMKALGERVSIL
# GALR2 agonist: agonists of human galanin receptor 2 (GALR2). O43603. GALR2-expressing cells, agonist activation read-out. activation, %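 (tested at 5 µM)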. hit rate 0.48% among 140,000;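 active means above mean plus 3 SD of all compounds, about 5% in these data, not always enough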;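 further: 0% = vehicle buffer wells and 100% = reference agonist at full effect; tested in CHO reporter cells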
# RGS16-Gao HTS: RGS16-Galphao interaction regulator (human); binding response (% of control), % at 10 µM; hit rate 0.38% among 220,000; bead-based flow cytometry RGS16-Galphao binding, fluorescence; actives lie on both sides;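 active means below 25% or above 175%, edge rows of some plates excepted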;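 further: Galphao activated by GDP with aluminum fluoride before binding; 100% = wells without compound and 0% = beads without RGS; some results beyond the cut were filed as inactive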
# HSV replic up: increases HSV replication in cells; HSV replication augmentation in cells, fold increase; maximum fold increase; hit rate 0.005% among 220,000; AID 1956;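 active means peak rise of 1.5-fold or more in the series; tested in PC3 cells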;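 further: first round at 10 µM; read as green reporter fluorescence; hits show the peak of a series up to 25 µM; 1 = signal of infected wells without compound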
# Insulin prom inh: TRM-6 insulin promoter activity inhibition | TRM-6 cells (human fetal islet line), insulin promoter-eGFP reporter, imaging; reporter expression induced with tamoxifen | inhibition, % at 2 µM | hit rate 0.9% among 130,000;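 active means inhibition above the mean plus 3 SD, with well images judged a real hit on visual review, cut at about 60% in these data, passing the limit was not always enough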
# Insulin prom inh cell count: recorded beside Insulin prom inh, whose call it bears; normalized cell count, %; measured here: cell count, toxicity; reference of the scale not given here;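 cells exposed to compound for 48 h; stained nuclei by imaging scaled within each plate; lower means fewer cells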
# HSV replic up primary fold: second read-out of HSV replic up, no call of its own (marks repeat the call); fold increase; compound at 10 µM; measured here: primary screen fold increase 10 uM; tested in PC3 cells;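 GFP signal in the first replicate; 1 = infected wells without compound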
# * marks the source's active call; other numbers are inactive results; i = inactive; . = not tested or not shown.
# Below each SMILES – GALR2 agonist	PKD1 inh	HSV replic up primary fold	HSV replic up	Insulin prom inh	Insulin prom inh cell count	RGS16-Gao HTS
Cc1cc(Cl)ccc1OCCCC(=O)NCc1ccncc1
 : -1.9	1.4	0.93	i	-50.0	65.7	100.1
CCOC(=O)C1CCN(C(=S)Nc2cccc(C)c2C)CC1
 : -1.1	-7.5	1.01	i	10.3	128.0	104.0
Cc1cc(N2C(=O)C3C4CC(c5ccccc5)C(C4)C3C2=O)no1 (centres undefined)
 : .	2.4	0.93	i	.	.	99.7
Cc1c(Cl)cccc1-n1c(-c2cccnc2)n[nH]c1=S
 : .	-0.2	0.99	i	-29.4	127.7	94.8
COc1cccc(Nc2nc3ccccc3nc2-n2nc(C)cc2C)c1
 : 23.3*	7.6	0.93	i	.	.	102.7
Cc1cc2ncn(-c3nnnn3-c3ccccc3)c2cc1C
 : -2.0	-1.9	0.99	i	.	.	95.9
Cc1sc2nc(SCC(=O)N3CCOCC3)[nH]c(=O)c2c1C
 : -1.8	-1.4	0.8	i	.	.	108.6
CCOC(=O)C1=C(CSc2nc3c(cc2C#N)CN(C)CC3)OC(N)=C(C#N)C1c1ccccc1 (centres undefined)
 : -2.7	-4.5	1.06	i	35.7	185.8	93.9
CC(C)NS(=O)(=O)c1ccc(OCC(=O)NC(C)c2ccccc2)cc1 (centres undefined)
 : .	-4.5	1.02	i	-100.0	93.6	102.0
CCCSc1nc2c(=O)[nH][nH]c(=O)c2n1Cc1ccccc1
 : -2.3	-3.4	0.883	i	27.8	99.2	118.0

# (list continues)
# Below each SMILES – GALR2 agonist	PKD1 inh	HSV replic up primary fold	HSV replic up	Insulin prom inh	Insulin prom inh cell count	RGS16-Gao HTS
C=CCn1c(SCC(=O)Nc2cccc(OC)c2)nnc1-c1cccnc1
 : -0.7	-3.2	0.99	i	.	.	94.8
COCCNC(=O)C12CC3CC(CC(Cl)(C3)C1)C2
 : .	.	1.16	i	.	.	108.1
Cc1cc(=O)oc2cc(OCC(=O)OCc3nnc(-c4ccccc4)o3)ccc12
 : -0.9	-4.1	0.86	i	.	.	100.8
Cn1c(=O)c2ncn(CC(=O)Nc3nc(-c4ccc(Cl)cc4)cs3)c2n(C)c1=O
 : .	-3.1	0.92	i	-16.7	148.5	107.3
Cn1nnc(NC(=O)c2cccc(OCc3ccccc3)c2)n1
 : -0.3	-4.3	0.867	i	-190.0	113.1	108.9
Cn1nc(C(=O)Nc2c(-c3ccccc3)nc3sccn23)c2ccccc2c1=O
 : -2.0	-10.4	1.07	i	.	.	100.5
Cc1nc(N2CCOCC2)[nH]c(=O)c1C(O)C(Cl)(Cl)Cl (centres undefined)
 : .	.	0.94	i	.	.	100.1
O=C(CSc1ncn[nH]1)c1ccccc1
 : -0.7	-3.8	1.18	i	.	.	99.6
CCOC(=O)c1nn(-c2ccc(OCC)cc2)c(C)c1C(C)=O
 : -0.3	-12.6	0.95	i	68.2	96.7	99.4
O=C1C2CC=CCC2C(=O)N1c1nc2n(n1)C(c1ccccc1)CC(c1ccccc1)N2 (centres undefined)
 : -2.0	9.2	0.93	i	0.0	171.4	103.1

# (continued)
# Below each SMILES – GALR2 agonist	PKD1 inh	HSV replic up primary fold	HSV replic up	Insulin prom inh	Insulin prom inh cell count	RGS16-Gao HTS
COc1ccccc1N1CCN(C(=O)C2CCN(S(=O)(=O)c3ccc(Cl)cc3)CC2)CC1
 : -1.2	-13.4	0.93	i	.	.	98.9
CCCCCC(O)(CCCCC)C(=O)NNc1ccccc1
 : -2.1	-3.9	0.92	i	-5.1	156.6	102.1
COc1cccc(C(C(=O)NC(C)(C)C)N(C(=O)CCC(=O)Nc2cc(C)on2)C(C)(C)C)c1OC (centres undefined)
 : -1.7	-1.1	1.02	i	-307.7	90.8	118.9
CC(=O)/C(=N/Nc1ccc(Br)cc1)N1CCCc2ccccc21
 : .	.	0.99	i	.	.	100.3
Nc1nc2ccc(C(=O)NCCOC(=O)C3CCCCC3)cc2s1
 : .	4.8	0.99	i	25.0	119.6	102.3
O=C(O)CCn1cc(C2CC(c3ccccc3)=NN2c2ccccc2)c(-c2ccccc2)n1 (centres undefined)
 : .	7.1	1.03	i	.	.	97.0
CN(/N=C/c1ccc2c(c1)OCO2)c1nc(N2CCOCC2)nc(N2CCOCC2)n1
 : .	-16.7	0.84	i	0.0	80.5	104.0
O=C(NC1CCCCC1)C(c1ccccc1F)N(Cc1ccco1)C(=O)Cn1nnc2ccccc21 (centres undefined)
 : -1.4	0.3	.	.	.	.	96.3
Cc1cc(C)nc(N2CCC(C(=O)NC3CCCCCC3)CC2)n1
 : -4.8	-0.9	0.96	i	-56.8	104.9	.
CCOC(=O)C(C)Sc1nc2c(c(-c3cccs3)c1C#N)CCC2 (centres undefined)
 : 1.6	0.9	1.05	i	-10.7	86.0	96.9

# Whole records, looked up by structure.
# `COc1ccccc1N1CCN(C(=O)C2CCN(S(=O)(=O)c3ccc(Cl)cc3)CC2)CC1` is listed with GALR2 agonist: -1.2; PKD1 inh: -13.4; HSV replic up primary fold: 0.93; HSV replic up: i; Insulin prom inh: .; Insulin prom inh cell count: .; RGS16-Gao HTS: 98.9
# `Cc1cc(C)nc(N2CCC(C(=O)NC3CCCCCC3)CC2)n1` is listed with GALR2 agonist: -4.8; PKD1 inh: -0.9; HSV replic up primary fold: 0.96; HSV replic up: i; Insulin prom inh: -56.8; Insulin prom inh cell count: 104.9; RGS16-Gao HTS: .

# (list continues)
# Below each SMILES – GALR2 agonist	PKD1 inh	HSV replic up primary fold	HSV replic up	Insulin prom inh	Insulin prom inh cell count	RGS16-Gao HTS
CSc1ccc(S(=O)(=O)N2CCCC2)cc1
 : -0.7	1.1	1.03	i	6.2	95.3	101.4
Cc1nn(-c2ccccc2)cc1C(=S)Nc1ccccc1
 : -2.8	-1.1	0.91	i	7.1	93.3	101.7
COc1ccc(OC)c(N/C(C)=C/C(=O)c2ccccc2)c1
 : -1.9	-4.3	0.79	i	.	.	108.7
CNc1ccccc1C(C)(C)c1cc(-c2cccc(OC)c2)no1
 : .	0.6	1.02	i	-70.0	132.6	100.3
C=CCN(CC=C)C(=S)NC(=O)/C=C/c1ccccc1
 : -0.9	-6.8	0.98	i	-23.1	82.7	112.1
O=[N+]([O-])c1ccc2[nH]c3c(c2c1)CCCC3O (centres undefined)
 : .	-5.2	0.96	i	.	.	100.6
Cc1cccc(NC(=O)NC(=O)c2ccccc2)n1
 : .	7.1	1.02	i	.	.	113.7
COc1ccc(-c2nnc(SC3CCOC3=O)n2C2CCCCC2)cc1OC (centres undefined)
 : -1.9	-8.0	0.89	i	.	.	102.4
CC1(C)CC(=O)C(C=NCCN2CCN(C(=O)c3ccc(F)cc3)CC2)=C(O)C1
 : -1.4	-7.5	0.93	i	.	.	101.8
COc1ccc(NC(=O)C2CCCN2C(=O)NCc2ccccc2)c(OC)c1 (centres undefined)
 : 0.1	-9.5	1.03	i	0.0	78.3	86.8

# (cont.)
# Below each SMILES – GALR2 agonist	PKD1 inh	HSV replic up primary fold	HSV replic up	Insulin prom inh	Insulin prom inh cell count	RGS16-Gao HTS
CC(C)Sc1nc2c(c(=O)[nH]1)C(c1cccs1)C1=C(CC(C)(C)CC1=O)N2 (centres undefined)
 : -1.2	0.7	0.92	i	.	.	102.1
COC(=O)c1cc2ccsc2n1Cc1cc(=O)n2ccccc2n1
 : -0.3	3.4	0.81	i	.	.	66.2
COC(=O)c1cc(NC(=O)CSc2nnc(CN3CCOCC3)n2C)ccc1Cl
 : -1.0	-6.0	1.08	i	-36.8	72.2	98.5
CCn1c(-c2ccccc2O)n[nH]c1=S
 : -1.1	-15.8	0.99	i	.	.	97.8
Fc1ccc2nc(Nc3nc4c(s3)CCCC4)sc2c1
 : -1.5	-12.1	0.88	i	-46.7	57.7	98.9
CCOC(=O)c1ccc(NC(=O)CSc2nc(SC)ns2)cc1
 : -0.7	-4.0	0.93	i	61.5	82.1	106.5
COc1ccc(S(=O)(=O)NC(CC(=O)NCCc2ccc(OC)c(OC)c2)c2ccco2)cc1 (centres undefined)
 : -1.5	-6.5	0.85	i	-75.0	121.3	111.8
COc1ccc(Br)cc1C(=O)Nc1cccc(C)c1
 : -1.2	-4.1	0.86	i	16.7	116.2	98.7
CCOC(=O)c1sc(NC(=O)Nc2ccc(Cl)cc2)cc1C
 : -0.7	-5.3	0.893	i	21.7	90.3	110.5
CC(C)(C)C(=O)Nc1ccccc1N1CCN(C(=O)c2ccc(Cl)cc2)CC1
 : 1.7	-5.8	1.07	i	34.2	88.7	136.7

# Given with bars between the fields: part of the list above
SMILES | GALR2 agonist | PKD1 inh | HSV replic up primary fold | HSV replic up | Insulin prom inh | Insulin prom inh cell count | RGS16-Gao HTS
Cc1cc(Cl)ccc1OCCCC(=O)NCc1ccncc1 | -1.9 | 1.4 | 0.93 | i | -50.0 | 65.7 | 100.1
CCOC(=O)C1CCN(C(=S)Nc2cccc(C)c2C)CC1 | -1.1 | -7.5 | 1.01 | i | 10.3 | 128.0 | 104.0
Cc1cc(N2C(=O)C3C4CC(c5ccccc5)C(C4)C3C2=O)no1 (centres undefined) | . | 2.4 | 0.93 | i | . | . | 99.7
Cc1c(Cl)cccc1-n1c(-c2cccnc2)n[nH]c1=S | . | -0.2 | 0.99 | i | -29.4 | 127.7 | 94.8
COc1cccc(Nc2nc3ccccc3nc2-n2nc(C)cc2C)c1 | 23.3* | 7.6 | 0.93 | i | . | . | 102.7
Cc1cc2ncn(-c3nnnn3-c3ccccc3)c2cc1C | -2.0 | -1.9 | 0.99 | i | . | . | 95.9
Cc1sc2nc(SCC(=O)N3CCOCC3)[nH]c(=O)c2c1C | -1.8 | -1.4 | 0.8 | i | . | . | 108.6
CCOC(=O)C1=C(CSc2nc3c(cc2C#N)CN(C)CC3)OC(N)=C(C#N)C1c1ccccc1 (centres undefined) | -2.7 | -4.5 | 1.06 | i | 35.7 | 185.8 | 93.9
CC(C)NS(=O)(=O)c1ccc(OCC(=O)NC(C)c2ccccc2)cc1 (centres undefined) | . | -4.5 | 1.02 | i | -100.0 | 93.6 | 102.0
CCCSc1nc2c(=O)[nH][nH]c(=O)c2n1Cc1ccccc1 | -2.3 | -3.4 | 0.883 | i | 27.8 | 99.2 | 118.0
C=CCn1c(SCC(=O)Nc2cccc(OC)c2)nnc1-c1cccnc1 | -0.7 | -3.2 | 0.99 | i | . | . | 94.8
COCCNC(=O)C12CC3CC(CC(Cl)(C3)C1)C2 | . | . | 1.16 | i | . | . | 108.1
Cc1cc(=O)oc2cc(OCC(=O)OCc3nnc(-c4ccccc4)o3)ccc12 | -0.9 | -4.1 | 0.86 | i | . | . | 100.8

# (more compounds)
# Below each SMILES – GALR2 agonist	PKD1 inh	HSV replic up primary fold	HSV replic up	Insulin prom inh	Insulin prom inh cell count	RGS16-Gao HTS
Cc1ccc(CSc2nnc(SCC(=O)N/N=C/C=C/c3ccccc3[N+](=O)[O-])s2)cc1
 : -1.3	-2.7	0.88	i	23.8	151.2	105.1
Cc1ccc(CNC(=O)Nc2ccccc2)cc1
 : -0.8	-0.5	0.987	i	.	.	102.8
Cc1ccc(-c2nnc(Nc3ccc4c(c3)OCO4)c3ccccc23)cc1S(=O)(=O)NCCO
 : 0.4	-8.3	0.87	i	5.3	83.1	92.5
CCOc1ccc2c(C)c(C(=O)O)oc2c1OCC
 : -2.2	-5.7	0.88	i	25.0	122.0	97.4
Cc1cc(C)n(-c2nc(NCCN(C)C)c3c4c(sc3n2)CCCC4)n1
 : .	.	0.59	i	.	.	99.6
O=C(/C=C/c1ccc(Cl)c([N+](=O)[O-])c1)Nc1cccc(NC(=O)c2ccco2)c1
 : -2.0	-2.4	0.92	i	-36.7	69.5	76.7
CC(C)[C@H](Nc1nc(-c2ccccc2)nc2c1oc1ccccc12)C(=O)O
 : 0.2	-3.8	1.09	i	36.8	84.3	90.2
CCc1ccc(S(=O)(=O)NCc2csc(-c3cccnc3)n2)s1
 : -0.6	0.3	0.96	i	i	34.6	99.7
CCOC(=O)CNC(=O)C(CC(C)C)NC(=O)C1CCCCC1 (centres undefined)
 : -1.5	1.4	1.06	i	-2.8	86.7	104.4
O=C(c1sccc1Cl)N1CCN(Cc2ccc3c(c2)OCO3)CC1
 : .	.	1.01	i	.	.	112.2
CCCn1nc(NC(=O)c2cccs2)c2cc3cccc(C)c3nc21
 : .	.	0.91	i	.	.	101.0

# Screens from PubChem.
